Calb biofilm kill – mixtures killing C. albicans biofilm; inhibition, % at 7.6 µM; 120,000 tested, 0.02% active; C. albicans biofilm persisters + clotrimazole, fluorescence viability; primary screen in compound mixtures of four per well; AID 1242;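 active = inhibition above 30.3% in the primary screen of four-compound pools, then above 30% when the compound was retested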;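 also: compounds exposed to preformed 24 h biofilms for 48 h; the number belongs to the whole pool; some results filed as inactive read as strong as hits; inactives centre near 12; 0% = biofilm with clotrimazole alone and 100% = kill control; retested singly at about 60 µM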
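Assay system: C. albicans biofilms / Medium: RPMI/MOPS medium, pH 7.0 / Schedule: biofilm formation 24 h, compound exposure 48 h, 37 °C / Measured by: Alamar Blue fluorescence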
An asterisk follows results filed as active. These rows are one share of the data; rates above refer to the full screens.

SMILES | Calb biofilm kill
COc1ccc(CCN2C(=O)CC(N3CCOCC3)C2=O)cc1OC (configuration not stated) | 5
O=C(CSc1nc2ccccc2n1Cc1ccccc1Cl)N/N=C/c1ccccc1C(=O)O | 13
NC(=O)c1ccc(NC(=O)COC(=O)CC(NC(=O)c2ccccc2Cl)c2ccccc2)cc1 (configuration not stated) | 13
C=C(C)C1CC=C(C)/C(=N/NC(=O)CCCNc2cccc(C)c2)C1 (configuration not stated) | 3
Cc1cc(CN(C)C(=O)CC2C(=O)NCCN2Cc2c(F)cccc2Cl)n[nH]1 (configuration not stated) | 16
Cc1nc2c(C(=O)Nc3ccc(N4CCCC(O)C4)cc3)snc2c(=O)[nH]1 (configuration not stated) | 16
O=C(Nc1ccccc1)c1cccc(S(=O)(=O)Nc2ccccn2)c1 | 10
COc1cc(OC)cc(-c2nc3ccccc3c(=O)n2NC(=O)c2cccnc2Cl)c1 | 15
c1ccc(CSc2nnc(Cc3ccccc3)o2)cc1 | 7
Cc1cc(C)nc(N/C(=N/S(=O)(=O)Cc2ccccc2)Nc2ccccc2)n1 | 7
O=C(COC(=O)[C@@H]1CCCN1S(=O)(=O)c1ccc(Cl)cc1)NC12CC3CC(CC(C3)C1)C2 | 18
CC(C)(C)c1ccc(C(=O)CC(Sc2ccc(Cl)cc2)C(=O)O)cc1 (configuration not stated) | 10
Cc1ccc(C2(C)NC(=O)N(CC(=O)Nc3cccnc3Cl)C2=O)cc1 (configuration not stated) | 5
Cc1noc(C)c1-c1nc(CS(=O)(=O)c2ccc(Cl)cc2)no1 | 14
COc1ccc(CS(=O)(=O)c2nc(C)cc(C)c2S(C)(=O)=O)cc1 | 20
CCOC(=O)c1cc(-c2ccccc2)sc1NC(=O)C(C)OC(=O)c1cccnc1Cl (configuration not stated) | 10
Cc1ccc(NCc2nnc(SCC(=O)O)n2Cc2ccccc2)cc1Cl | 5
COc1ccc(Nc2nc(-c3ccc(OC)cc3)c(CCC(=O)O)s2)cc1 | 24
CCOc1ccccc1NC(=O)c1ccc(NC(=O)c2ccco2)cc1 | 4
CCOC(=O)c1cc(NC(=O)Nc2ccccc2Cl)c(C)nc1C | 15
O=C(CNCc1ccc(Cl)cc1)Nc1cccc(C(=O)O)c1 | 20
Cc1cc(C)nc(SCc2cc(=O)c(OC(=O)c3ccco3)co2)n1 | 5
CCC(C)N(C(=O)COC(=O)/C=C/c1ccc(O)c(OC)c1)C1CCS(=O)(=O)C1 (configuration not stated) | 14
CC1(C)CC(=O)C(Sc2ccccc2C(=O)O)=C(O)C1 | 5
CC(=O)Nc1sc(N/N=C\c2cccc(Cl)c2)nc1-c1cccs1 | 15
COc1ccc2nc(C)c(C(N)=O)cc2c1 | 21
COc1cc2c(c(OC)c1OC)CCc1cnoc1-2 | 11
COc1ccc(C(=O)C2CCCN(C(=O)c3ccoc3C)C2)cc1F (configuration not stated) | 5
O=C(Nc1cc(F)c(Br)cc1F)c1ccc(Cl)cc1 | 20
C/C(=N\Nc1cccc2cccnc12)c1ccc[nH]1 | 0
Cc1nccn1-c1ccc(C(F)(F)F)cc1[N+](=O)[O-] | 24
O=C(NN=C1CCCC1)c1n[nH]c2c1CCC2 | 15
CCSc1nnc(NC(=O)Cc2cc(OC)c(OC)c(OC)c2)s1 | 13
CCOc1ccc(NC(=S)Nc2ccc(OC)cc2)cc1 | 15
CC(CCCC(C)(C)O)NC(=O)c1ccc(OC2CCN(C(=O)C3CC3)CC2)cc1 (configuration not stated) | 1
COc1cccc(CNCCO)c1OCc1ccc(Cl)cc1 | 12

Taken from above, four compounds:
SMILES | Calb biofilm kill
CCSc1nnc(NC(=O)Cc2cc(OC)c(OC)c(OC)c2)s1 | 13
CCOc1ccc(NC(=S)Nc2ccc(OC)cc2)cc1 | 15
CC(CCCC(C)(C)O)NC(=O)c1ccc(OC2CCN(C(=O)C3CC3)CC2)cc1 (configuration not stated) | 1
COc1cccc(CNCCO)c1OCc1ccc(Cl)cc1 | 12

Continuation.
SMILES | Calb biofilm kill
CN(C)CCCN(CCCN(C)C)C(=S)Nc1ccc(S(=O)(=O)N2CCOCC2)cc1 | 4
Cc1ccc(C2CC(c3ccco3)=NN2S(C)(=O)=O)cc1 (configuration not stated) | 21
Cc1ccc(NC(=O)/C(C#N)=C(\N)C(Cl)(Cl)Cl)nc1 | 17
O=C(Nc1cccc(C(F)(F)F)c1)C(Sc1n[nH]c(=O)[nH]c1=O)c1ccccc1 (configuration not stated) | 25
CC(CC(=O)Nc1ccccc1C(F)(F)F)c1ccccc1 (configuration not stated) | -8
CC(C)NC(=O)CSc1nc(N)c(-c2ccccc2)c(=O)[nH]1 | 9
COc1ccc(CNc2nc3ccccc3n2CCN2CCCCC2)cc1 | 11
Cc1nc2c(C)cccc2cc1C(=O)N/N=C/c1cccnc1 | 6
COC(=O)c1ccc(NC(=S)NCCc2ccccc2)cc1 | 13
Cn1cnc([N+](=O)[O-])c1Sc1nc2ccccc2[nH]1 | 23
Cc1ccc2c(c1)c1c(n2CC(O)CNC2CCCC2)CCCC1 (configuration not stated) | 25
CCOC(=O)c1nnn2c1nc(N1CCN(c3ccccc3)CC1)c1ccccc12 | 15
CSc1cccc(NC(=S)NCCCN2CCN(c3ccc(F)cc3)CC2)c1 | 13
CC(=O)Nc1ccc2nc(NC(=O)c3ccc([N+](=O)[O-])s3)sc2c1 | 13
CCOCc1c(C(=O)Nc2cc(OCC)c(N3CCOCC3)cc2OCC)oc2ccccc12 | 8
Cc1cc(C)n(-c2ccccc2[N+](=O)[O-])n1 | 5
CC1(C)CC(=O)C2=C(C1)NC1=C(C(=O)c3ccccc31)C2c1cc([N+](=O)[O-])ccc1O (configuration not stated) | 17
O=C(c1cccc2ccccc12)C1CCCN(C(=O)c2ccc(N3CCOCC3)cc2)C1 (configuration not stated) | 19
O=[N+]([O-])c1ccccc1Nc1c2ccccc2nc2ccccc12 | 5
COc1ccc(C2=NC(=O)/C(=C\c3cc(OC)c(OC)c(OC)c3)O2)cc1 | 14
COc1ccccc1CCc1nnc(CCC(=O)N(C)Cc2cccc3ncccc23)o1 | 27
CC1C/C(=N/Nc2nc3ccccc3[nH]2)CC(C)(C)C1 (configuration not stated) | 11
O=C(O)CC/C(=C\c1ccc(N2CCCC2)c([N+](=O)[O-])c1)c1nc2ccccc2s1 | 30
Cc1c(NC(=O)Cc2noc3ccccc23)cccc1[N+](=O)[O-] | 12

4 of these compounds, reformatted:
COc1cc(OC)cc(-c2nc3ccccc3c(=O)n2NC(=O)c2cccnc2Cl)c1
  Calb biofilm kill: 15

CCOC(=O)c1cc(-c2ccccc2)sc1NC(=O)C(C)OC(=O)c1cccnc1Cl (configuration not stated)
  Calb biofilm kill: 10

COc1ccc2nc(C)c(C(N)=O)cc2c1
  Calb biofilm kill: 21

Cc1ccc(NC(=O)/C(C#N)=C(\N)C(Cl)(Cl)Cl)nc1
  Calb biofilm kill: 17

Additional compounds:
SMILES | Calb biofilm kill
CN(c1ccccc1)S(=O)(=O)c1ccc(Cl)nc1 | 11
CC(C)c1[nH]nc2c1C(C1C=CCCC1)C(C#N)=C(N)O2 (configuration not stated) | 16
Cc1nn(C)cc1CNCc1c(C(=O)N2CCCCC2)nc2c(C)cccn12 | 14
O=C(c1cccs1)n1nc(-c2ccccc2)nc1NCc1ccco1 | 14
Cc1cc(C)nc(N(C#N)Cc2ccc(Cl)cc2)n1 | 17
CCc1nc2scc(-c3cccs3)c2c(=O)o1 | 14
CC1(C)CC(=O)c2ccc(OCc3ccc([N+](=O)[O-])cc3)cc2O1 | 15
CCSc1nnc(NC(=O)CSC2=NN3CCCC(=O)N=C3S2)s1 | 10
S=C(Nc1ccccc1Cl)N1CCCC1 | 25
COc1ccccc1OCCCCN1CCN(C(c2ccccc2)c2ccccc2)CC1 | 12
Cc1ccc(C)c(S(=O)(=O)Nc2nc(C)c(C(=O)Nc3ccccc3)s2)c1 | 21
O=C(Nc1cccc(O)c1)N1CCOCC1 | -4

Among those listed so far, 7 have fluorine.
SMILES | Calb biofilm kill
Cc1cc(CN(C)C(=O)CC2C(=O)NCCN2Cc2c(F)cccc2Cl)n[nH]1 (configuration not stated) | 16
COc1ccc(C(=O)C2CCCN(C(=O)c3ccoc3C)C2)cc1F (configuration not stated) | 5
O=C(Nc1cc(F)c(Br)cc1F)c1ccc(Cl)cc1 | 20
Cc1nccn1-c1ccc(C(F)(F)F)cc1[N+](=O)[O-] | 24
O=C(Nc1cccc(C(F)(F)F)c1)C(Sc1n[nH]c(=O)[nH]c1=O)c1ccccc1 (configuration not stated) | 25
CC(CC(=O)Nc1ccccc1C(F)(F)F)c1ccccc1 (configuration not stated) | -8
CSc1cccc(NC(=S)NCCCN2CCN(c3ccc(F)cc3)CC2)c1 | 13

Continuation:
SMILES | Calb biofilm kill
O=C1c2ccccc2S(=O)(=O)N1CC(O)Cn1c2ccccc2c2ccccc21 (configuration not stated) | 4
Cc1nc2c(ccc3c([N+](=O)[O-])cccc32)c(C)c1C | 14
COc1ccccc1CN1C2CCCC1CC(NC(=O)/C=C/c1ccccc1)C2 (configuration not stated) | 1
CCOC(=O)c1sc(-c2cccc(C(F)(F)F)c2)nc1O | 17
CCOc1ccc(NCC(=O)c2ccc(C)cc2)cc1 | 10
O=C(NCc1ccc(F)cc1)C1CCC(CNc2c(N3CCOCC3)c(=O)c2=O)CC1 (configuration not stated) | 20
O=C(CCC(=O)N1CCN(c2ccccc2F)CC1)c1ccc(F)cc1 | 14
O=C(C1=C[C@@H](c2ccc(C(F)(F)F)cc2)C[C@@H](OCCCCO)O1)N1CCOCC1 | 19
COCCN(Cc1cc2cc(C)ccc2n2nnnc12)C(=S)Nc1ccc(C)cc1 | 2
N#Cc1c(N)n(-c2ccc(O)cc2)c2nc3ccccc3nc12 | 14
CCOC(=O)C1(C(C)(C)CC)CC(CSc2nc3ccccc3[nH]2)OC1=O (configuration not stated) | 14
O=C(O)CCCNC(=O)c1ccccn1 | 5
N#Cc1cc2c(nc1SCc1ccc(Cl)nc1)CCCCC2 | 15
CC[C@@H](NS(=O)(=O)c1ccc(C)cc1)C(=O)Oc1ccc2c3c(c(=O)oc2c1)CCC3 | 15
CCOc1cc(CNn2cnnc2)cc(Br)c1OCC(=O)NC1CCCCC1 | 10
Cc1c(NC(=O)C(C)OC(=O)c2c3c(nc4ccccc24)CCC3)c(=O)n(-c2ccccc2)n1C (configuration not stated) | 6
O=C(Nc1ccccc1)Nc1nnc(-c2ccccc2)s1 | 13
NS(=O)(=O)c1ccc(NC(=O)COC(=O)c2ccc3c(c2)OCCO3)cc1 | 12
CCCCNC(=O)N(O)C1N(/N=C/c2cccs2)C(=S)SC1(C)C (configuration not stated) | 17
CC12COC3(C(=O)Nc4ccccc4)CC1CCC32C (configuration not stated) | 10
COc1ccc(/C=C/C(=O)Nc2ccncc2)cc1OC | -3
O=C(c1ccc(Cl)cc1)N1CCCC(C(=O)N2CCN(c3ccccc3)CC2)C1 (configuration not stated) | 20
O=C(CN1CCCCC1)Nc1ccc(Br)cc1[N+](=O)[O-] | 0
O=[N+]([O-])c1ccc(O)c(/C=N/NC2=NS(=O)(=O)c3ccccc32)c1 | -5
CN(C)CCN(C(=O)c1ccccc1Cl)c1nc2c(Cl)cccc2s1 | 6
COC(=O)c1cc(C#N)c(N2CC(C)OC(C)C2)nc1C (configuration not stated) | 13
FC(F)(F)c1nc(NCC2CCCO2)c2nnn(Cc3ccccc3Cl)c2n1 (configuration not stated) | 7
COCCN(C(=S)Nc1cccc(OC)c1)C(C)c1cccs1 (configuration not stated) | 23
C#CCOCCOCCOCCNc1nc(N2CCN(C(=O)C([C@@H](C)CC)n3cc(C(N)CC(C)C)nn3)CC2)nc(N2CCN(C(=O)[C@H](CCC(=O)O)n3cc(C(N)CC(C)C)nn3)CC2)n1 (some centres not stated) | 13
O=c1cnnc(Nc2ccccc2F)[nH]1 | 16
O=C(NCc1ccco1)c1sc2cc(Cl)ccc2c1Cl | 5
Cc1ccc(NC(=O)c2cccc(N3C(=O)C4C5CCC(C5)C4C3=O)c2)c(C)c1 (configuration not stated) | 9
c1ccc(SCCN2CCc3ccccc3C2)cc1 | 8
CN=c1scc(-c2ccc(OC)cc2)n1/N=C(\C)c1cccnc1 | 6
COc1ccc(NC(=O)Nc2ccccc2SC)cc1OC | -3
CCOC(=O)CNC(=O)CSc1nccn1Cc1ccco1 | 11
COc1ccc(/C=C/CN2CCCC(C(=O)c3ccc(OC)c(F)c3)C2)cc1 (configuration not stated) | 3
COc1ccc(/C=C/C(=O)NC(=S)NCc2ccccc2)cc1OC | 11
O=C(C1=C[C@@H](c2ccc(C(F)(F)F)cc2)C[C@@H](OCCCCO)O1)N1CCN(Cc2ccc3c(c2)OCO3)CC1 | 19
CC(NC(=S)Nc1cccc(F)c1)C(c1cccs1)N1CCOCC1 (configuration not stated) | 24
CCc1cc2cc(C)cc(C)c2nc1Cl | 12
CCOc1ccc(NC(=O)CC2C(=O)NCCN2C(=O)c2ccc(Cl)cc2)cc1 (configuration not stated) | 11
Cc1cc(C)c(C(CC(=O)c2cccs2)C(C#N)C#N)c(C)c1 (configuration not stated) | 1
COC(=O)C(Cc1c[nH]c2ccccc12)NC(=O)c1cccs1 (configuration not stated) | 20
O=C(CCCOc1ccc(Cl)cc1Cl)Nc1ncccn1 | 3
Cc1ccc(/C=C/C(=O)Nc2ccccc2C(N)=O)cc1 | 9
O=C(O)c1ccc(CSc2nnc(-c3ccccc3)n2-c2ccccc2)cc1 | 8
COC(=O)C1=C(C)N(CCCC(=O)O)C(=O)NC1c1cccs1 (configuration not stated) | -1

Bioassay records: PubChem, PCMD
